NS1 inh: inhibitors of influenza NS1 protein function; S. cerevisiae slowed by influenza A NS1, growth recovery by OD600; Potency, µM (highest dose often 46.1 µM), without a hit: top-dose activity, positive = more growth; 270,000 compounds, 0.4% hits; AID 2326; active means well fitted rising curve with a large enough effect; inconclusive means small, poorly fitted or top-dose-only effect; inactive means no such curve, though single readings can be large or run the other way; note: nearly all actives have a fitted effect of over 50% in size
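Growth recovery, yeast-based: influenza A NS1 expressed in S. cerevisiae causes slow growth, and suppressors are detected by OD600. The parent strain without NS1 is used as positive control.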
RE007 growth inh: less growth of the S. pombe RE007 Vpr strain | Potency, µM (titrated, usually from 92.2 µM), inactives show at the highest dose activity change, negative = less growth | 360,000 compounds, 0.21% hits | AID 651644 | S. pombe RE007 Vpr strain, BacTiter-Glo ATP luminescence, 24 h; control for the full effect not named in the record; active = well fitted falling curve with a large enough effect; inconclusive = small, poorly fitted or top-dose-only effect; inactive = no such curve, though single readings can be large or run the other way;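 note: % is set by controls: 0 for no effect and ±100 for the full control effect; nearly all actives have a fitted effect of over 50% in size; the assay follows cell death caused by Vpr and the record does not say whether a fall means rescue or toxicity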
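Fission yeast RE007 carrying one integrated HIV-1 vpr copy, seeded at OD 0.01 in PMG+AL medium with 23 nL pinned compound. Grown 24 h at 30 degrees; viability read by BacTiter-Glo luminescence after 5 min.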
StopGo reporter: lowers the luciferase signal of an FMDV 2A StopGo reporter; human cells with a luciferase reporter of 2A StopGo recoding; control for the full effect not named in the record; Potency, µM (series often up to 57.9 µM), for inactives: at the highest dose signal change, negative = less light; 410,000 compounds, 1.2% hits; AID 1159524; active = well fitted falling curve with a large enough effect; inconclusive = small, poorly fitted or top-dose-only effect; inactive = no such curve, though single readings can be large or run the other way; tested in HEK293T cells; note: % is set by controls: 0 for no effect and ±100 for the full control effect; nearly all actives have a fitted effect of over 45% in size; luciferase light after 4 h
LASV entry inh: Lassa virus entry inhibition | Lassa virus pseudotype entry inhibition, cell reporter; control for the full effect not named in the record | Potency, µM (highest dose often 37.9 µM), inactives show at the top dose activity change, negative = inhibition, actives largely listed as inhibitors | 300,000 compounds, 1.2% hits | AID 540256; active means well fitted inhibition curve with a large enough effect; inconclusive means small, poorly fitted or top-dose-only effect, or effect the other way; inactive means flat fitted curve, though single readings scatter; tested in HEK293 cells; note: % is set by controls: 0 for no effect and ±100 for the full control effect; nearly all actives have a fitted effect of over 50% in size; luciferase read-out
SARS PLP yeast: SARS-CoV PLP inhibition in yeast; 330,000 compounds, 0.19% hits; Potency, µM (series often up to 32.9 µM), without a hit: at the top dose activity, positive = growth rescue; AID 485353; S. cerevisiae expressing SARS-CoV PLpro, growth rescue; control for the full effect not named in the record; active means well fitted rising curve with a large enough effect; inconclusive means small, poorly fitted or top-dose-only effect; inactive means no such curve, though single readings can be large or run the other way; note: 0% is about no effect; nearly all actives have a fitted effect of over 55% in size; growth read by luminescence after 48 h
Cruzain noTriton: blocks cruzain activity in detergent-free assay; Potency, µM, without a hit: max response, negative = inhibition, most hits filed as inhibitors; purified cruzain, Z-FR-AMC fluorescence, no detergent; 200,000 compounds, 2.3% hits; P25779; AID 1476;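 note: plate controls were enzyme without inhibitor for no effect and buffer without enzyme for full effect; nearly all actives have a fitted effect of over 40% in size; top concentration of the series not given in the record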
Target sequence (P25779 123-467 limits assumed): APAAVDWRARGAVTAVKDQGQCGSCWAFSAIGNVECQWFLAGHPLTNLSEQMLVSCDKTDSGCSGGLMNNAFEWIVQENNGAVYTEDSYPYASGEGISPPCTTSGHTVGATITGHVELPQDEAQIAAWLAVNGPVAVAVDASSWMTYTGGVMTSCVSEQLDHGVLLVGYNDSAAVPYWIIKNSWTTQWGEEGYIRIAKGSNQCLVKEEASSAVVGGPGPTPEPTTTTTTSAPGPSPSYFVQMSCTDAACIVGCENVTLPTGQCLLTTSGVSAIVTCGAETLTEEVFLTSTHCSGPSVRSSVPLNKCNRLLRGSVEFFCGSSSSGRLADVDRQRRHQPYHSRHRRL
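Detergent-free condition (0.00005% Triton X-100) in acetate buffer pH 5.5 with DTT. 1.5 nM enzyme and compound were pre-mixed 15 min, then 2 uM Z-FR-AMC substrate added; reaction progress from fluorescence change between first and third reads (60 s).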
MARV entry inh: inhibitors of Marburg virus binding or cell entry; Marburg virus pseudotyped entry inhibition, cell reporter; control for the full effect not named in the record; about a third of the inactives were read at about 46 µM; Potency, µM (doses to about 37.8 µM), without a hit: top-dose activity change, negative = inhibition, hits mostly inhibitors; 300,000 compounds, 1.8% hits; AID 540276; active = well fitted inhibition curve with a large enough effect; inconclusive = small, poorly fitted or top-dose-only effect, or effect the other way; inactive = flat fitted curve, though single readings scatter; tested in HEK293 cells; about a fifth of its hits are not listed in these tables; note: % is set by controls: 0 for no effect and ±100 for the full control effect; luciferase read-out
Cruzain inh Det: blocks cruzain activity in presence of Triton detergent; P25779; purified cruzain, Z-FR-AMC fluorescence, 0.01% Triton; Potency, µM, without a hit: max response, negative = inhibition, hits mostly inhibitors; 200,000 compounds, 0.43% hits;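 note: plate controls were neutral wells for no effect and buffer without enzyme for full effect; nearly all actives have a fitted effect of over 40% in size; top concentration of the series not given in the record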
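Detergent-containing run (0.01% Triton X-100) in acetate buffer pH 5.5 with 5 mM DTT: enzyme at 1.5 nM final, 15 min compound preincubation at room temperature, then 2 uM Z-FR-AMC substrate. Activity taken as 60 s fluorescence increase at 360/450 nm.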
The depositor's hits bear a star; ? = inconclusive; nt = not tested or not shown; & = joins results of further samples; [ ] = remark or other dose. Unless noted, calls come from the whole dose curve; as a rule, active = well fitted curve in the direction sought with a large enough effect; inconclusive = small, poorly fitted or top-dose-only effect, or another doubt; inactive = no such curve, though single readings can be large; an effect the other way counts as inactive or inconclusive. Potency is the fitted concentration of half-maximal effect.

SMILES | NS1 inh | RE007 growth inh | StopGo reporter | LASV entry inh | SARS PLP yeast | Cruzain noTriton | MARV entry inh | Cruzain inh Det
CC(=O)N1CCc2cc(CNS(=O)(=O)c3cccs3)ccc21 | nt | nt | 52%[activator] | 1%[46.1 µM] | nt | -14% | nt | 1.4%
O=C1CC(Cc2ccc(Cl)cc2)C(=O)N1c1cc(Cl)ccn1 (stereo not given) | -2% | -13% | -12% | 0% | 0% | nt | ? | nt
CC(=O)Nc1ccc(C(=O)OCc2ccccc2Br)cc1 | nt | -7% | 36%[activator] | -1%[46.1 µM] | -5% | nt | -7%[46.1 µM] | nt
CC(C)c1ccc(N(CC(=O)O)S(=O)(=O)c2cccnc2)cc1 | -12% | -6% | -12% | nt | -1% | -11% | nt | -3.8%
O=C1CCC(=O)N1CCc1c[nH]c2ccccc12 | -4% | 11% | -6% | 6% | -2% | 6% | -4% | 1.6%
CN1C(=O)c2ccccc2Sc2ccc(NC(=O)Cc3ccc(Cl)cc3)cc21 | nt | nt | -22% | ? | nt | 14% | nt | 2.4%
COc1ccc(CCNC(=O)CSc2nnc3ccc(-c4ccccn4)nn23)cc1OC | nt | -2% | -7% | -11% | 7% | nt | 10%[46.1 µM] | nt
N#CC1(NC(=O)COC(=O)C23CC4CC(CC(O)(C4)C2)C3)CCCCC1 | 11% | 4% | -11% | ? | ? | nt | 24% | nt
CCOC(=O)c1cccc(NC(=O)C2CCCN(c3nnc(C)c4c(C)n(-c5ccccc5)nc34)C2)c1 (stereo not given) | nt | nt | -15% | 2%[46.1 µM] | nt | 11% | nt | -1.9%
Fc1ccc(-c2nc3c(-c4ccc(Cl)cc4)cnn3cc2CCN2CCOCC2)cc1 | 5% | 33% | -28% | ? | 1% | nt | ? | nt
CC1=C(C#N)C2(O)C(=O)c3ccccc3C2(O)N1 (stereo not given) | 6% | 2% | -5% | 8% | -3% | nt | ? | nt
O=C1c2ccccc2-c2nc3ccccc3cc21 | -48% | 7% | 23% | ? | 0% | nt | ? | nt
CC(C)CCN1CCN(Cc2ccc(C#CCCO)cc2)CC1CCO (stereo not given) | -6% | 1% | -1% | -4% | 1% | nt | -6%[46.1 µM] | nt
COC(=O)c1ccccc1NC(=O)C1CC(=O)N(c2ccccc2)C1 (stereo not given) | -8% | 17% | -7% | -4% | 3% | 9% | 4% | 3.8%
C=CCc1ccccc1OCCn1ccnc1 | 6% | -14% | -1% | 3% | -1% | 5% | -4% | 0.9%
Cc1cc(=O)oc2c(C)c(OC(C)C(=O)NCCCN3CCOCC3)ccc12 (stereo not given) | 2% | -8% | -6% | nt | ? | nt | nt | nt
N=c1n(CCN2CCOCC2)c2ccccc2n1CC(=O)c1cccc([N+](=O)[O-])c1 | 6% | -4% | -15% | ? | -2% | nt | 0% | nt
CCOC(=O)c1c(C)[nH]c(C)c1C(=O)CSc1nc2ccccc2n1CCOC | 26% | 7% | 4% | 2% | 9% | 4% | -1% | -12%
Cn1c(=O)c2c(nc(NCc3ccc4c(c3)OCO4)n2C)n(C)c1=O | ? | -8% | nt | -1% | -3% | 6% | -13% | -2.4%
Cc1nc(CCNC(=O)CC2C(=O)NCCN2Cc2ccccc2F)sc1C (stereo not given) | 3% | -17% | -8% | -1% | 1% | nt | 0%[46.1 µM] | nt
O=C(CN1CCCc2ccccc21)N1CCc2ccccc21 | 1% | -16% | 4% | -5%[46.1 µM] | -1% | nt | ? | nt
CCOC(=O)Cc1cnc(NC(=O)CSc2nc(C)cc(C)n2)s1 | nt | 2% | ? | nt | 1% | nt | 0%[46.1 µM] | nt
CCCCNC(=O)c1nc2ncc(Br)cn2n1 | 6% | 9% | 0% | 3% | 0% | -11% | 13% | 2.3%
Cc1cc(NC(=O)CC#N)n(-c2ccccc2)n1 | 10% | 9% | -10% | nt | 1% | nt | nt | nt
CC(Oc1ccccc1Cl)C(=O)/C=C/N(C)C (stereo not given) | 1% | -7% | -3% | -1% | 4% | -7% | 15% | -2.1%
Cc1cn(CCC(=O)Nc2ccccc2N2CCOCC2)c2ccccc12 | 0% | 19% | 62%[activator] | ? | 0% | nt | ? | nt
Cc1ccc(NC(=O)C(=O)NCc2ccc(/C=C(/C#N)C(=O)NCc3cccnc3)o2)cc1 | 13% | -6% | ? | 25%[14.3 µM] | -1% | 0% | -5% | 2.3%
Cc1cc(/C=C\c2ccccc2)nc2ccccc12 | -42% | ? | 25% | nt | -4% | nt | nt | nt
O=C(NCCCN1CCCCC1)C1CCC(=O)N1CCc1ccccc1 (stereo not given) | 0% | -7% | 9% | 32% | 5% | -8% | 19% | 3.1%
C=CCn1c(C2CC(=O)N(c3ccc(C)cc3)C2)nc2ccccc21 (stereo not given) | -23% | 2% | -9% | -7% | -3% | 5% | -6% | 2.9%
CC(N=Cc1nc(-c2ccccc2)oc1O)c1ccccc1 (stereo not given) | -33% | -13% | 12% | ? | -20% | 2% | ? | -10%
O=C(O)Cn1cc(/C=C2\C(=O)NC(=O)N(c3ccc(Br)cc3)C2=O)c2ccccc21 | 6% | 9% | -3% | -17% | 0% | nt | -12%[46.1 µM] | nt
CC(C)(C)OC(=O)NC(Cc1ccccc1)C(=O)N1CCC(C(=O)NCC(=O)Nc2ccc(F)cc2)CC1 (stereo not given) | 6% | 9% | 29% | nt | 0% | nt | nt | nt
CC1/C(=N/O)C(CN(C)C)C2CC1C2(C)C (stereo not given) | -3% | -14% | -7% | 1% | 1% | -9% | 3% | 9.3%
O=C(CSc1nnc(-c2ccc(F)cc2)o1)N1CCCCC1 | 3% | -25% | 65%[activator] | 22%[46.1 µM] | -1% | nt | ? | nt
COCC1CCCN(C(=O)c2ccc3oc(Cc4ccc(Cl)cc4)nc3c2)C1 (stereo not given) | -32% | 9% | -5% | nt | -5% | nt | nt | nt
CC(=O)c1cccc(NC(=O)CSc2nc(=O)n(CCN3CCOCC3)c3c2CCC3)c1 | nt | 17% | -9% | 0% | -2% | nt | -22% | nt
N=c1c2c(-c3ccccc3)c(-c3ccccc3)n(Cc3ccccc3)c2ncn1CCCO | 12% | -10% | ? | -24% | 2% | -10% | 5.8µM* | 3.3%
O=C(CCc1nnc(Cc2ccc(-c3ccccc3)cc2)o1)NCCc1cccnc1 | -9% | -8% | -17% | nt | 0% | nt | nt | nt
COC(=O)C1=NN(C(=O)c2ccccc2)C(C)(O)C1 (stereo not given) | -4% | -1% | nt | -5% | 4% | 6% | 0% | 14%
COc1ccccc1Nc1nc(-c2ccccc2Cl)c2cc(Br)ccc2n1 | nt | nt | -4% | -13%[46.1 µM] | nt | 18% | nt | 3.9%
CC(=NNC(=O)CSCC(=O)NN=C(C)c1ccccc1)c1ccccc1 | nt | -12% | -3% | 0%[46.1 µM] | nt | nt | 11%[46.1 µM] | nt
Cc1cc(NC(=O)COC(=O)c2ccc(F)c(S(=O)(=O)N3CCOCC3)c2)no1 | -4% | 2% | -11% | 1% | 0% | -18% | 3%&3% | 3.3%
Cc1cc(C(=O)NC2CCCc3ccccc32)c(C)o1 (stereo not given) | -30% | -25% | 11% | 19% | 3% | 4% | -15%[46.1 µM] | -2.3%
OC(COc1ccccc1)CN1C2=NCCCN2c2ccccc21 (stereo not given) | -6% | -3% | -25% | 6% | 5% | -12% | ? | 6.8%
CCc1nc2ccccc2c(C(=O)OCC(=O)NC2CCCC2)c1C | nt | 18% | -1% | ? | 1% | nt | 13%[46.1 µM] | nt
CN(CC(=O)Nc1ccc(S(=O)(=O)N2CCCC2)cc1)Cc1ccc(Cl)c(Cl)c1 | -42% | -7% | -16% | ? | -25% | -1% | ? | -3.6%
O=C(Nc1nnc(S(=O)(=O)N2CCOCC2)s1)c1ccccc1 | 1% | -2% | 40%[activator] | nt | 6% | nt | nt | nt
Cc1c(C(=O)N/N=C/c2cccnc2)sc(N)c1C#N | 2% | 18% | 3% | 16%[46.1 µM] | 1% | nt | -9%[46.1 µM] | nt
CC(C)OC(=O)c1c(NC(=O)c2cnn3c2NC(c2ccccc2)CC3C(F)F)sc2c1CCCC2 (stereo not given) | 6% | nt | nt | nt | -1% | ? | 7% | -0.8%
CC(C)(C)c1ccc(S(=O)(=O)Nc2ccc(Cc3ccncc3)cc2)cc1 | 4% | -9% | 1% | 10µM* | -34% | 7% | ? | -5.0%
CCc1ccc(CN(C)C(=O)C2CCC(=O)N(CC3CCCCC3)C2)cc1 (stereo not given) | 2% | -11% | -10% | ? | -4% | nt | 4% | nt
CCOC(=O)CN(C)C(=O)CCc1nnc(-c2ccsc2)o1 | 11% | -7% | 21% | -30%[46.1 µM] | 1% | nt | ? | nt
Fc1ccc(-c2cn3ccccc3n2)cc1 | -14% | -22% | 29% | nt | -13% | nt | nt | nt
CCOc1ccc(CCNC(c2nnc(-c3ccccc3)o2)c2ccccc2Cl)cc1OCC (stereo not given) | nt | nt | -18% | -8%[46.1 µM] | nt | -3% | ? | 1.4%
O=C(Nc1ccccc1F)c1oc2ccccc2c1NC(=O)c1c(F)cccc1F | nt | nt | 20% | -28%[46.1 µM] | nt | 2% | ? | -3.3%
Cc1ccc(C)c(NP(=O)(Oc2ccccc2)Oc2ccccc2)c1 | 10% | 10% | -26% | nt | -7% | nt | nt | nt
CCOC(=O)C1CCN(C(=O)CCc2nnc3ccc(NCc4ccco4)nn23)CC1 | 8% | -13% | 21% | nt | 2% | nt | nt | nt
CC(Sc1ccc(Cl)cc1)C(=O)NCC1CCCO1 (stereo not given) | 1% | 5% | -9% | 4% | 2% | -3% | -1% | 1.1%
NC(N)=N/N=C/c1ccc(Cl)c(Cl)c1 | 4% | 15% | -23% | ? | 2% | nt | ? | nt
CCOC(=O)C1=C(CC)Nc2ccccc2N=C1NC(=O)c1cc(S(=O)(=O)N(C)C)ccc1Cl | 12% | 1% | 9% | -26% | -8% | 13% | ? | -3.2%
CCN1CCN(c2cc(C)c3cc(NC(=O)/C=C/c4ccc(OCCC(C)C)cc4)ccc3n2)CC1 | nt | nt | ? | 26%[46.1 µM] | nt | 9% | 0%[46.1 µM] | -2.4%

From PubChem
